High-throughput results as filed in PubChem BioAssay.
Ab BasE inh = BasE siderophore enzyme inhibitors, primary screen, biochemical, Acinetobacter baumannii ATCC 17978, fluorescence polarization; purified BasE, fluorescence polarization binding displacement; inhibition, % (concentration not given with the values); actives 0.1% (n = 84,000); AID 485350, 2010;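 active means both replicates above 25% with normal brightness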;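 further: 0% = negative plate control signal and 100% = positive plate control signal; stock transfer was 100 nL into about 30 µL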
KSHV LANA nucl = inhibitors of KSHV LANA-nucleosome binding, primary screen, biochemical, fluorescence polarization, FITC-LANA1-23, chicken nucleosomes; FITC-LANA1-23 / chicken nucleosome fluorescence polarization; active compounds read low; z-score (test concentration not listed); actives 0.3% (n = 51,000);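 active means both repeat wells score below -2 in polarization z-score versus plate sample wells, excluding overly bright wells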;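 further: 100 nL library stock added to about 30 µL; numbers are from one replicate; some results filed as inactive read as strong as hits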
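Material: Purified chicken nucleosomes with FITC-labelled LANA N-terminal peptide (1-23) | Reagent: 50 nM FITC-LANA1-23 probe | Medium: TEN-BT buffer, pH 7.5 | Times: 10–45 min incubation at room temperature | Detection: Fluorescence polarization | Replication: Duplicates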
Active calls of the source: *; · = no result given. The list is partial (hit frequency here may not be typical).

SMILES	Ab BasE inh	KSHV LANA nucl
Cc1ccnc(S/C=C/C(=O)c2ccc(I)cc2)n1	0.3	0.18
CC(C)COc1ccc(C(CC(=O)O)C(=O)O)cc1 (stereo not given)	2.4	·
COc1cccc(NC(=O)C=C(C)C)c1	-1.0	-0.59
O=C(CS(=O)CC(=O)Nc1cccc2c1CCCC2)Nc1ccc(F)cc1 (stereo not given)	-1.2	-0.18
CC(C)(C)c1ccc(C(=O)Nc2cc(-c3ccccc3)no2)cc1	-1.1	-0.45
N#CCSc1nc(-c2cccnc2)ccc1C(=O)O	1.3	-0.88
O=C1NC(=S)C(=C2CCCC2)S1	7.0	·
O=S(=O)(c1cc(O)cc(S(=O)(=O)C(F)(F)F)c1)C(F)(F)F	0.5	0.52
CN(C(=O)Nc1cn(C)c2ccccc12)C1CCCCC1	1.6	-0.59
FC(F)n1c2ccccc2c2ccccc21	1.3	·
CC1=NN(c2nc3ccccc3s2)C(=O)C1CCC(C)C (stereo not given)	-0.7	0.12
Cc1ccc(S(=O)(=O)N(CCc2cccs2)CC(=O)O)cc1	1.2	-0.84
O=C(O)C1CCN(C(=O)c2ccc(Cl)cc2)CC1	0.5	·
COC(=O)C1=C(\N2CCOCC2)CCCC/C=C\1C(=O)OC	5.1	-0.2
CCS(=O)(=O)Nc1ccc2[nH]c(=O)[nH]c2c1	2.1	0.015
CCOc1ccc(NS(=O)(=O)c2cccc(C(=O)Nc3nnc(C4CC4)s3)c2)cc1	-0.1	·
Oc1ccc(N=Cc2ccco2)cc1	4.8	-0.22
CCCN(CCC)S(=O)(=O)c1ccc(C(=O)Nc2ccc3c(c2)OCO3)cc1	0.3	-0.55
CCOC(=O)C1=C(Nc2ccc(OC(C)=O)cc2)C(=O)N(C(C)(C)C)C1	-0.3	·
Cc1cc(C(=O)COC(=O)c2n[nH]c(=O)c3ccccc23)c(C)n1-c1ccc(S(N)(=O)=O)cc1	-2.2	·
Cc1cc(C(=O)COC(=O)c2ccc(S(=O)(=O)NCc3ccco3)cc2)c(C)n1C	1.5	·
CC1C(C#N)=C(N)SC(N)=C1C#N	-0.4	-1.4
C#CCn1c(=NC(=O)C(C)(C)C)sc2cccc(OCC)c21	0.1	-1.3
O=C(NCc1ccccc1CN1CCOCC1)c1ccc(-n2cccn2)cc1	-2.3	·
CCn1c(CNC(=O)NCc2ccccc2)nnc1SC	1.0	0.78

Three entries out of the list above, arranged by their value in KSHV LANA nucl, falling.
Structure	KSHV LANA nucl
O=C(CS(=O)CC(=O)Nc1cccc2c1CCCC2)Nc1ccc(F)cc1 (stereo not given)	-0.18
COC(=O)C1=C(\N2CCOCC2)CCCC/C=C\1C(=O)OC	-0.2
N#CCSc1nc(-c2cccnc2)ccc1C(=O)O	-0.88

(next part)
SMILES	Ab BasE inh	KSHV LANA nucl
Cc1cc2oc(=O)sc2cc1NS(=O)(=O)c1cccc2cccnc12	1.6	-0.2
c1ccc2[nH]c(CCCCc3nc4ccccc4[nH]3)nc2c1	-2.8	0.098
CCc1ccc(C2Nc3cc(Cl)ccc3C3=NCCCN32)cc1 (stereo not given)	-5.8	0.63
O=S(=O)(Nc1ccc2c(c1)nc1n2CCN(Cc2ccccc2)C1)c1ccc(F)cc1	-1.6	0.13
CCC(C(=O)Nc1cccc(C(=O)O)c1)c1ccccc1 (stereo not given)	0.8	-0.56
C=C(C)/C=N/NC(=S)Nc1ccc(S(=O)(=O)N2CCOCC2)cc1	-1.1	·
O=C(Nc1cccc(C(F)(F)F)c1)c1noc2c1CCCC2	0.2	-1.1
Cc1ccc(NC(=O)CSC2CCCC2)c(C)c1	-1.4	0.33
CCC(=O)Nc1nnc(COc2ccc(OC)cc2)s1	-0.1	-1.7
O=S1(=O)CCC(Nc2nc(-c3cccnc3)nc3scc(-c4ccccc4)c23)C1 (stereo not given)	-3.6	·
CN1CCN(CCCNC(=O)c2cc3c(=O)n(C)c4ccccc4c3s2)CC1	-12	0.31
CC(C)(C)n1cccc1C=C1C(=O)NC(=O)NC1=O	2.7	-0.43
CCN(CC)C(=O)CSc1nnc(-c2ccc(OC)cc2)n1CCOC	0.1	-0.004
CC1CCCC(C)N1C(=O)c1ccccc1 (stereo not given)	0.5	·
COc1ccccc1C(=O)NCC(=O)N1CCN(S(=O)(=O)c2cc(C)ccc2C)CC1	0.6	·
N#C/C(=C\N1CCN(Cc2ccccc2)CC1)S(=O)(=O)c1ccccn1	-0.4	-1.2
[O-][n+]1ccccc1Sc1nnc(Cc2ccccc2)c2ccccc12	·	2.6
CC12CCC(c3c1nn(-c1ccccc1)c3C(F)(F)F)C2(C)C (stereo not given)	0.3	·
N#Cc1c(SCCN2CCCCC2)sc2c(O)cc(=O)[nH]c12	0.1	1.1
N#Cc1ccccc1S(=O)(=O)NCc1ccco1	-3.4	·
Cc1ccc(N=Cc2cc(Br)ccc2O)c(S(=O)(=O)N2CCOCC2)c1	3.4	·
O=C(Oc1ccc2c(c1)OCC2=O)c1ccc(Cl)cc1	2.3	-0.7
CN1C(=O)C2(NN=C(c3ccccc3)S2)c2cc(Br)ccc21 (stereo not given)	0.9	-0.055
C[C@@H](C(=O)OCN1C(=O)c2ccccc2C1=O)N1C(=O)C2CC=CCC2C1=O (stereo not given in full)	1.3	·
COC(CNC(=O)c1cnn2c(C)c(Cc3ccccc3C)c(C)nc12)OC	-2.3	-0.55

3 compounds already listed, sorted by number of heavy atoms, lowest first.
SMILES	Ab BasE inh	KSHV LANA nucl
O=C(Oc1ccc2c(c1)OCC2=O)c1ccc(Cl)cc1	2.3	-0.7
COC(CNC(=O)c1cnn2c(C)c(Cc3ccccc3C)c(C)nc12)OC	-2.3	-0.55
COc1ccccc1C(=O)NCC(=O)N1CCN(S(=O)(=O)c2cc(C)ccc2C)CC1	0.6	·

The list goes on.
SMILES	Ab BasE inh	KSHV LANA nucl
COc1ccc(-c2ocnc2C(=O)Nc2cccc(Oc3ccccc3)c2)cc1OC	4.8	0.066
CCOC(=O)c1sc(N(C)C(C)=O)nc1C	-3.3	1.9
CCNC(=O)c1cc2n(n1)CCCN(Cc1ccccc1)C2=O	-3.9	1.9
CC1(C)C/C(=N/O)c2cc3c(nc2C1)CC(C)(C)C/C3=N\O	1.3	0.32
O=C(Nc1nccs1)C1=COCCO1	0.2	·
Cc1cccc(NC(=S)Nc2ccc(N(C)C)cc2)c1	3.9	-0.3
O=C(NCc1ccccn1)c1nn(-c2ccccc2)c(=O)c2ccccc12	-3.1	·
O=C(c1ccc(=O)[nH]n1)N1CCN(Cc2ccccc2)CC1	0.5	-0.8
CC(C)COC(=O)CNc1n[nH]c(=O)[nH]c1=O	-4.2	·
Cc1onc(-c2c(Cl)cccc2Cl)c1NC(=O)N(C)C	1.6	·
Cc1cc(N)n(-c2ccc(S(=O)(=O)c3ccc(C(C)C)cc3)cc2)n1	-1.6	·
Cc1cc(-c2nc(C)c(-c3nnc(SCC(=O)Nc4ccccc4)n3C)s2)no1	2.4	·
Cc1sc2nc(SCC(=O)NCCCN3CCOCC3)[nH]c(=O)c2c1C	2.6	0.41
COc1cc(OC)cc(C(=O)Nc2cc(C(=O)N3CCCC3)ccc2N2CC3CC(C2)c2cccc(=O)n2C3)c1 (stereo not given)	1.7	-1.5
CN(Cc1ccccc1)c1ncnc2c1oc1ccccc12	0.1	·
Cc1ccc(NC(=S)NC2CCS(=O)(=O)C2)cc1 (stereo not given)	4.3	0.28
COCCNC(=S)N1CCC(NC(=O)Nc2ccc(F)cc2)CC1	-1.7	0.97
COc1cc2nc(C3CCC3)n(N)c(=O)c2cc1OC	-1.1	0.31
COC(=O)c1cc(=O)n2c(n1)sc1cc(OC)ccc12	2.4	0.0025
CCCCNS(=O)(=O)c1ccc2nc(SCC(=O)C(C#N)c3ccccc3)[nH]c2c1 (stereo not given)	-0.2	·
Cc1ccc(NS(=O)(=O)c2c(C)nn(C)c2Cl)c(C)c1	-0.4	·
O=C(COC(=O)c1ccc(S(=O)(=O)NCc2ccco2)cc1)Nc1ccccc1	-0.7	·
O=S1(=O)CCN2C=CC=NC2=N1	5.1	·
N[C@@H](CC1CCCCC1)C(=O)O	2.8	·
COc1ccc(-c2noc(N(C)CC(=O)Nc3ccc(Oc4ccccc4)cc3)n2)cc1	-1.0	-0.42

More records:
SMILES	Ab BasE inh	KSHV LANA nucl
CCOC(=O)c1oc2ccccc2c1CN(C)CCc1ccccc1	5.1	-0.24
O=C(CSc1nc2ccccc2o1)NC(=O)NC1CCCC1	4.8	·
Cc1cc(C)n2c3c(c(C#N)c2n1)CCCC3	0.7	0.12
N#CCc1ccc(NC(=O)CSCc2ccccc2)cc1	-1.2	-0.13
CC(OC(=O)C1CC1)C(=O)Nc1cccc(Cl)c1 (stereo not given)	-1.0	·
O=C(O)c1c[nH]c(=O)n(-c2ccccc2F)c1=O	-0.5	0.36
CN(C)c1ccc(Nc2cc(N3CCC(=O)CC3)c3noc4c3c2C(=O)c2ccccc2-4)cc1	0.4	0.53
CCNC(=S)N/N=C/C1=CCC2CC1C2(C)C (stereo not given)	2.1	·
COc1cccc(-c2nc(-c3ccc(NC(=O)c4cccnc4)cc3)no2)c1	-0.1	1.4
CCCn1nc(C(=O)NCC2COc3ccccc3O2)c2ccccc2c1=O (stereo not given)	0.8	·
O=C1CSC(=O)N1CCOc1ccc(F)cc1	-0.6	-0.35
Nc1c(C(=O)N/N=C/c2ccc3c(c2)OCO3)cnn1-c1ccccc1	1.8	-0.85
CCC(C)(C)n1nnnc1C(c1ccccc1)N1CCc2ccccc2C1 (stereo not given)	2.8	-0.61
N#Cc1c(-c2ccccc2)cc2c(c1N)c(=O)oc1ccccc12	2.7	·
COc1cc(/C=C(\C#N)C(=O)OC(C)(C)C)cc(OC)c1	3.2	-0.82
NNC(=O)c1cc2cc(OC(F)(F)F)ccc2[nH]1	6.2	0.91
C=CCn1c(=S)sc2c(=O)n(CC(=O)Nc3ccc(C)c(C)c3)cnc21	1.8	·
S=c1[nH]c(-c2ccccc2)cn1/N=C/c1cccs1	1.5	·
CCN(CC)S(=O)(=O)c1cc(C(=O)Nc2ccccc2C)ccc1C	1.1	·
CCN1CCN(CC(=O)c2ccc(C)cc2)CC1	-1.7	·
O=C(/C=C/c1ccccc1)Nc1nnc(-c2ccc3c(c2)CCCC3)o1	0.5	0.53
CC1CCN(C(=S)NC2CCCCC2)CC1	-0.8	2.4
CC(=O)N1C(=O)C2(C(C#N)=C(N)Oc3cc(C)oc(=O)c32)c2ccccc21 (stereo not given)	-1.2	0.1
Cn1ccc(-c2ccc(Oc3cccc(Cl)c3C#N)cc2)n1	·	-0.53
O=C1C2CCCN2C(=O)N1c1ccc(Br)cc1 (stereo not given)	-1.1	-0.07

Compound profiles, as listed above.
Record of NNC(=O)c1cc2cc(OC(F)(F)F)ccc2[nH]1 = Ab BasE inh = 6.2; KSHV LANA nucl = 0.91
Record of O=C(O)c1c[nH]c(=O)n(-c2ccccc2F)c1=O = Ab BasE inh = -0.5; KSHV LANA nucl = 0.36
Record of CN(C)c1ccc(Nc2cc(N3CCC(=O)CC3)c3noc4c3c2C(=O)c2ccccc2-4)cc1 = Ab BasE inh = 0.4; KSHV LANA nucl = 0.53

More records
SMILES	Ab BasE inh	KSHV LANA nucl
CC(C)Nc1cc(N2CCN(Cc3ccc4c(c3)OCO4)CC2)c2noc3c2c1C(=O)c1ccccc1-3	-15	2
CCCCN1C(=O)c2ccc(C(=O)OCC(=O)c3ccc(CNC(C)=O)o3)cc2C1=O	2.4	·
Cn1ncc(N)c1C(=O)N1CCOCC1	-2.0	2.7
O=C(NC1CCCC1)C(c1ccc(O)cc1)N(C(=O)Cn1nnc(-c2cccs2)n1)C1CCCC1 (stereo not given)	-0.2	-0.25
C=CCn1c(N)cc(=O)nc1SCC(=O)NC(C)c1ccccc1 (stereo not given)	-1.1	-0.017
CN1C(=O)/C(=C/c2ccccc2)NC1=S	-0.7	0.44
CN(CC1CCCO1)S(=O)(=O)c1ccc(C(=O)Nc2nnc(-c3ccccc3)o2)cc1 (stereo not given)	0.1	-1.6
CC(C)(C)c1ccc(C(=O)N2CCC(C(=O)NCc3ccco3)CC2)cc1	-5.5	2.2
O=C(CN1CCCCCC1=O)OCc1ncc(-c2ccccc2)o1	1.7	·
Nn1cc(-c2ccccc2)nc1SCC(=O)c1ccc(Cl)s1	1.3	·
O=C(c1ccc2c(c1)OCCO2)N1CCCSC1=Nc1ccccc1	2.9	·
COc1ccc(S(N)(=O)=O)cc1C	3.6	-2.6
Cc1nnc2n(c1=O)C(CS(=O)(=O)c1ccccc1)CS2 (stereo not given)	1.4	0.38
CN(C)c1ccc(/C=N/N2C(=O)C3C4C=CC(C4)C3C2=O)o1 (stereo not given)	4.5	-0.97
Cc1ccccc1-c1nnc(C2CCC(c3ccccc3)CC2)o1 (stereo not given)	-1.6	1.1
CC(O)C(NS(=O)(=O)c1ccc(Cl)cc1)C(=O)OCc1nnc(-c2ccccc2)o1 (stereo not given)	2.3	·
COc1cccc(C(=O)Nc2ccc3oc(-c4cccc(I)c4)nc3c2)c1	-1.9	·
Cc1c(/C=N/NC(=O)c2cncc(Br)c2)c2ccccc2n1C	1.1	-0.51
CCn1nccc1NC(=O)c1ccccc1	1.8	0.86
O=C(c1cccc(-n2cccc2)c1)N1CCC(c2nc3ccccc3s2)CC1	-1.6	·

2 consecutive records from above:
SMILES	Ab BasE inh	KSHV LANA nucl
Cc1ccnc(S/C=C/C(=O)c2ccc(I)cc2)n1	0.3	0.18
CC(C)COc1ccc(C(CC(=O)O)C(=O)O)cc1 (stereo not given)	2.4	·
